Compound activity as filed in PubChem.
Vif TR-FRET: inhibitors of Vif binding to APOBEC3G peptide, primary screen, biochemical, TR-FRET, GST-Vif 1-94, biotin-A3G peptide, dose response retest (AID 1117319) | inhibition, %, or IC50 in µM where a hit was titrated | TR-FRET GST-Vif / biotin-A3G peptide binding; higher % means a stronger effect; test concentration not given here; strong numbers were not always called active | 0.57% of 260,000 active;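 active = above the screen mean plus three standard deviations and confirmed in dose response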;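 note: Vif residues 1-94 fused to GST binding biotinylated APOBEC3G peptide 110-148; 0% = full assay without inhibitor and 100% = GST in place of GST-Vif; retest series ran down from 100 µM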
MLL AF4-AF9 inh: blocks AF4 peptide binding to human AF9. P42568. AlphaScreen, biotin-AF4 peptide binding to FLAG-AF9. AID 651704. 0.47% of 350,000 active. inhibition, % at 10 µM;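 active = every replicate reaching a set inhibition limit, whatever the replicate mean, cut at about 25% in these data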;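 note: 0% = plate neutral control median and 100% = total signal loss; the record names both 10 and 1 µM as test concentration; the first replicate is given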
Target sequence (P42568 whole entry, looked up): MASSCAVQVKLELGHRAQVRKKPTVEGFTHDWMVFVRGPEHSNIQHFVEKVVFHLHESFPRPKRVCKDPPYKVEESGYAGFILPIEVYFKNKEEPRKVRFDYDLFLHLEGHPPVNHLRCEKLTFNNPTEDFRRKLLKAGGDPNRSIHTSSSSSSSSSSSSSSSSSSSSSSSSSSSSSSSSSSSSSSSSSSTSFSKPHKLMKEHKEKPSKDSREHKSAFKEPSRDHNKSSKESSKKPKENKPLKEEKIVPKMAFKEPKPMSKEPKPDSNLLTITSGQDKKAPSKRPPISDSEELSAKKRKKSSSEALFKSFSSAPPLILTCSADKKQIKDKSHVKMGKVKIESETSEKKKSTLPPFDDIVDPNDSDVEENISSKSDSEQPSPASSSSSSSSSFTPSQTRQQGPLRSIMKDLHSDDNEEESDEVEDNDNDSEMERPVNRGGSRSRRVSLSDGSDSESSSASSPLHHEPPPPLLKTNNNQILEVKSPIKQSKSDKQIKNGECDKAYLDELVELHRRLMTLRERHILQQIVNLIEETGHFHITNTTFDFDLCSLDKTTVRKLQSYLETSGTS
Ecoli rRNA inh: inhibits bacterial ribosomal RNA function over humanized ribosomes; E. coli WT GFP vs humanized-ribosome RFP mutants, fluorescence, 24 h; stronger effect = lower value; DMSO median 0, no signal -100; GFP signal change (wild-type ribosome), % (no concentration beside the values); 1.6% of 350,000 active;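 active = significant combined selectivity score with lowered wild-type GFP, culture density cut under 30%, mutant RFP and density less affected; inactive = any of these conditions unmet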; note: one replicate is shown; some compounds called inactive have numbers as strong as hits
Ecoli rRNA inh OD600: recorded beside Ecoli rRNA inh, whose call it bears; OD600 change, %; measured here: OD600 growth;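 optical density of the mix in the first replicate; 0 = DMSO median and -100 = no signal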
Ecoli rRNA inh RFP: further read-out of Ecoli rRNA inh, marked with its call; RFP signal change, %; measured here: RFP humanized mutant strains;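 first replicate; 0 = DMSO median and -100 = no signal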
* marks the source's active call; other numbers are inactive results; & = joins results of further samples.

SMILES	Vif TR-FRET	MLL AF4-AF9 inh	Ecoli rRNA inh	Ecoli rRNA inh OD600	Ecoli rRNA inh RFP
COc1cc2c(cc1OC)[C@@H](NC(=O)CCc1ccccc1)[C@H](O)C2	9%	-2.7	12	10	0.3
CCOc1ccc(Nc2ccc(N)c(S(=O)(=O)O)c2)cc1	-7%	16	-8	16	21
CCOc1ccc(NC(=O)OCCN2CCN(CCc3ccccc3)C(C)C2)cc1 (configuration not stated)	-8%	1.3	-5	-6	5.7
COc1ccc(Cc2nc3ccc(C(=O)N(C)Cc4nccn4C)cc3o2)cc1	-3%	1.1	-2	6	-1.5
COc1ccc(S(=O)(=O)N2CCOCC2)cc1NC(=O)c1cc2ccccc2o1	2%	2.4	-10	-5	3.3
COC(=O)c1cc(NC(=O)COC(=O)CCc2c[nH]c3ccccc23)cc(C(=O)OC)c1	3%	-31	0	10	0.3
O=C(OCc1ccccc1)c1ccc(NCc2cc(O)ccc2O)cc1	5%	11	-36*	-16*	17*
COc1ccccc1C=NNc1ccc([N+](=O)[O-])cn1	5%	-8.8	9	10	2.2
O=C(NC(c1ccccc1)c1ccccc1)c1ccccc1	-4%	-24	9	11	2.3
CCCCn1c(N)c(N(CC)C(=O)C2COc3ccccc3O2)c(=O)[nH]c1=O (configuration not stated)	6%	2.9	4	0	-0.1

Reprinted from the part before: 2 entries, then new ones.
SMILES	Vif TR-FRET	MLL AF4-AF9 inh	Ecoli rRNA inh	Ecoli rRNA inh OD600	Ecoli rRNA inh RFP
O=C(NC(c1ccccc1)c1ccccc1)c1ccccc1	-4%	-24	9	11	2.3
CCCCn1c(N)c(N(CC)C(=O)C2COc3ccccc3O2)c(=O)[nH]c1=O (configuration not stated)	6%	2.9	4	0	-0.1
COc1ccc(C(=O)N/C(=C\c2ccc(-c3cccc([N+](=O)[O-])c3)o2)C(=O)NCCCN2CCOCC2)cc1	4%	9.0	-7	18	-0.6
OC(c1ccccc1)(c1ccccc1)c1nccn1-c1ccccc1	-1%	-3.2	-8	-51	14
Nc1ncn(C(=S)Nc2ccccc2)n1	-8%	2.4	16	9	4.2
COc1ccc(N(C)S(=O)(=O)c2cccc(C(=O)N3CCN(Cc4ccc5c(c4)OCO5)CC3)c2)cc1	0%	2.6	-5	-20	0.2
CC1CC(C)(C)CC2(C1)NC(=O)N(CC(=O)Nc1ccc3c(c1)OCO3)C2=O (configuration not stated)	-2%	2.3	-2	14	-0.3
CSC[C@H]1CN(c2ccccc2)C(=O)[C@@H]1CC(=O)Nc1ccc(Br)cc1	-5%	1.4	-23	-25	-6.4
CCOc1ccc(NC(=O)CSc2nnc(C)n2C2CC2)cc1S(=O)(=O)N1CCCC1	-12%	-12	0	14	-4.2
Cc1cc(C)c2cc(C#N)c(NCCCNC(=O)c3ccncc3)nc2c1	-2%	-0.5	-13	-22	-1.3
CCCCCCN1C[C@@H](n2cc(-c3ccc(F)cc3)nn2)[C@H](O)C[C@@H]1c1ccc(OC)cc1	-1%	1.5	8	-3	28
CC(Cc1ccccc1)NC(=O)CCNNC(=O)c1ccncc1 (configuration not stated)	-3%	1.3	12	17	3.1
COCCNC(=O)C(OC(=O)c1ccco1)c1ccc(OC)cc1 (configuration not stated)	-4%	4.6	7	8	-0.5
CC1CN(C(=O)COC(=O)c2ccc3ccccc3c2)CC(C)O1 (configuration not stated)	2%	-3.8	-5	-13	-5.2
CC1=NS(=O)(=O)NC(C)(C)C1	-8%	1.6	13	17	0.3
CCc1ccccc1NC(=O)CNC(=O)CNC(=O)Cc1ccccc1	-6%	-1.7	2	4	-3.5
O=C1OC(Sc2ccccc2)(c2ccccc2)c2ccccc21 (configuration not stated)	-7%	-4.0	-10	-31	-4.6
O=C(Nc1cnns1)Oc1ccccc1	1%	-0.4	5	17	-4.8
CC(Sc1nncn1C)C(=O)Nc1ccc2ccccc2c1 (configuration not stated)	2%	0.4	3	4	-0.4
COCCN(CC(=O)Nc1cccc(C)c1C)C(=O)Cc1sc(C)nc1-c1ccc(F)cc1	-14%	2.0	-1	10	6.3
COc1ccccc1C(=O)NNC(=O)c1ccc2ccccc2c1O	6%	-0.5	-16	-26	-7.9
NC1=NOC(=O)C1C1CCCCC1 (configuration not stated)	7%	-7.5	24	18	-1.7
CC[C@]12c3[nH]c4cc(CCC(=O)N(C)C)ccc4c3CCN1C(=O)[C@@H](CC(=O)NCc1cccc(C(F)(F)F)c1)C[C@@H]2C(=O)N1CCN(C(=O)c2ccco2)CC1	2%	-1.2	-5	-2	2.6
CC(C)Cn1c(N)c(C(=O)CSc2ncn[nH]2)c(=O)n(C)c1=O	-1%	1.5	3	4	1.4
O=[N+]([O-])c1ccc(NN=Cc2ccc(O)cc2)nc1	0%	-2.3	-13	34	-0.7
CCSC(=O)N1c2ccc(OC)cc2C=CC1C#N (configuration not stated)	-2%	0.5	-10	-23	3.1
O=C(NCc1ccccc1F)c1ccc(S(=O)(=O)N2CCCC2)cc1	-4%	0.2	-3	7	-1.3
COc1ccc(C=CC(=O)c2ccc(OC)c(OC)c2O)cc1OC	-6%	16	3	-21	4.7
COc1ccc(-c2ccc(-c3cc(=O)oc4cc(OC)c(OC)c(OC)c34)cc2)cc1F	-9%	-3.2	4	4	0.4
O=C1c2ccccc2C(=O)N1CCc1c(-c2[nH]c3ccccc3c2CCN2C(=O)c3ccccc3C2=O)[nH]c2ccccc12	0%	1.0	-3	-7	-2.7
Cc1ccc([C@H]2C[C@@H](O)[C@H](n3cc(C4CC4)nn3)CN2C(=O)C2CCCCC2)cc1	-2%	-0.6	-12	-6	2.1
Cc1ccc(S(=O)(=O)N(C)C[C@H]2OCc3cnnn3CCCC(=O)N([C@H](C)CO)C[C@H]2C)cc1	-2%	1.0&0.1&-1.1	1&0	13&5	0.5&0.3
N#CCSc1ccccc1NC(=O)CN1C(=O)NC(CCc2ccccc2)C1=O (configuration not stated)	-1%	-0.8	1	12	-1.3
C[C@H](CO)N1C[C@H](C)[C@@H](CN(C)C(=O)CCC(F)(F)F)OCc2cnnn2CCCC1=O	6%	-5.6&-1.9&3.8	20&5	11&4	0.6&-0.4
Cn1c(=O)c2[nH]c(NN=Cc3ccc(Br)cc3)nc2n(C)c1=O	-10%	10.0	9	12	2.4
CCN(CC)CC1CN(N=Cc2ccc([N+](=O)[O-])o2)C(=O)O1 (configuration not stated)	2%	0.8	-54	-77	-17
C/C=C/c1cnc2c(c1)C(=O)N([C@H](C)CO)C[C@H](C)[C@@H](CN(C)C(=O)CN1CCOCC1)O2	-6%	-3.6&-2.3	4	7	0.6
CCCNC(=O)c1cc(S(=O)(=O)N2CCC3(CC2)OCCO3)ccc1F	1%	-2.7	4	8	0.6
COc1ccc2oc(=O)c(C(=O)Nc3ccccc3-c3ccccc3)cc2c1	4%	-2.7	8	9	0.6
O=C(Nc1cccnc1)c1cccc(S(=O)(=O)Nc2ccccc2F)c1	2%	1.1	1	-8	2.2
C#CCNS(=O)(=O)c1ccc(F)cc1Br	2%	-0.3	-1	-13	1.0
CSC[C@H]1CN(Cc2ccccc2)C(=O)[C@@H]1CC(=O)Nc1ccc(Br)cc1	0%	0.5	-5	-2	2.0
CC(C)C[C@H]1CNC(=S)N1CC1CCCN1C[C@H](Cc1ccccc1)N1C[C@H](Cc2ccc(O)cc2)N(CC2CCCCCC2)C1=S (some centres not stated)	4%	3.9	10	8	-0.9
Cc1nc2c(=O)[nH]n(C)c2nc1C	-3%	-0.9	2	15	-1.0
O=[N+]([O-])c1ccc(NN=C(Oc2ccccc2)c2ccc([N+](=O)[O-])cc2)cc1	-2%	2.1	4	8	1.7
N#CCCSC(=S)C1CCCC1=N (configuration not stated)	-2%	5.3	1	-1	-2.1
O=C(CN1C(=O)NC2(CCc3ccccc32)C1=O)Nc1ccc(Cl)cc1F (configuration not stated)	4%	0.9	-7	-12	0.0
Cc1nc(SCC(=O)N2CCN(C(=O)c3cccs3)CC2)c2c(C)c(C)sc2n1	-1%	-0.5	-3	-2	1.5
CN(Cc1cnn(-c2ccccc2)c1)C(=O)c1cccc(S(=O)(=O)Nc2ccccc2F)c1	-6%	1.7	-6	-17	-3.1
O=C(NNC(=O)c1cccc(S(=O)(=O)Nc2ccccc2F)c1)c1ccncc1	1%	-6.7	13	-2	6.7
C[C@H](CO)N1C[C@H](C)[C@@H](CN(C)C(=O)Oc2ccccc2)OCc2cn(nn2)CCCC1=O	2%	-0.7&0.6	0&-1	3&3	1.8&-1.7
Clc1ccc(-n2cnc3c(Cl)ncnc32)cc1Cl	-2%	-1.2	4	-2	-2.0

More entries.
SMILES	Vif TR-FRET	MLL AF4-AF9 inh	Ecoli rRNA inh	Ecoli rRNA inh OD600	Ecoli rRNA inh RFP
CCN(CC)CCOC(=O)c1ccc(NC(=O)c2cn(-c3ccccc3)nc2-c2cccs2)cc1	-8%	1.6	-51	-75	-14
Nc1cc(=O)[nH]c(SCc2ccccc2)n1	0%	-0.5	4	8	-1.2
C[C@@H]1CN([C@H](C)CO)C(=O)CCCn2nncc2CO[C@@H]1CN(C)C(=O)Nc1ccc2c(c1)OCO2	3%	-4.8&0.1	10&2	15&5	3.9&-4.0
CC(=O)Cn1cnc2c(cnn2-c2ccc(F)cc2)c1=O	5%	6.0	7	21	2.3
CCOC(=O)C1(C)C(=O)CC2c3nc4ccccc4cc3CN2C1=O (configuration not stated)	-7%	1.7	0	4	41
C#CCN(C[C@@H]1[C@@H](OC(=O)NCC2CCCCC2)[C@@H](OC(=O)NCC2CCCCC2)Cn2c(=O)n(CCCCCC)c(=O)n21)S(=O)(=O)c1ccc(C)cc1	5%	0.1	3	-2	-0.6

Rewritten with bars between the fields: part of the list above
Molecule | Vif TR-FRET | MLL AF4-AF9 inh | Ecoli rRNA inh | Ecoli rRNA inh OD600 | Ecoli rRNA inh RFP
CC(C)C[C@H]1CNC(=S)N1CC1CCCN1C[C@H](Cc1ccccc1)N1C[C@H](Cc2ccc(O)cc2)N(CC2CCCCCC2)C1=S (some centres not stated) | 4% | 3.9 | 10 | 8 | -0.9
Cc1nc2c(=O)[nH]n(C)c2nc1C | -3% | -0.9 | 2 | 15 | -1.0
O=[N+]([O-])c1ccc(NN=C(Oc2ccccc2)c2ccc([N+](=O)[O-])cc2)cc1 | -2% | 2.1 | 4 | 8 | 1.7
N#CCCSC(=S)C1CCCC1=N (configuration not stated) | -2% | 5.3 | 1 | -1 | -2.1
O=C(CN1C(=O)NC2(CCc3ccccc32)C1=O)Nc1ccc(Cl)cc1F (configuration not stated) | 4% | 0.9 | -7 | -12 | 0.0
Cc1nc(SCC(=O)N2CCN(C(=O)c3cccs3)CC2)c2c(C)c(C)sc2n1 | -1% | -0.5 | -3 | -2 | 1.5
CN(Cc1cnn(-c2ccccc2)c1)C(=O)c1cccc(S(=O)(=O)Nc2ccccc2F)c1 | -6% | 1.7 | -6 | -17 | -3.1
O=C(NNC(=O)c1cccc(S(=O)(=O)Nc2ccccc2F)c1)c1ccncc1 | 1% | -6.7 | 13 | -2 | 6.7
C[C@H](CO)N1C[C@H](C)[C@@H](CN(C)C(=O)Oc2ccccc2)OCc2cn(nn2)CCCC1=O | 2% | -0.7&0.6 | 0&-1 | 3&3 | 1.8&-1.7
Clc1ccc(-n2cnc3c(Cl)ncnc32)cc1Cl | -2% | -1.2 | 4 | -2 | -2.0
CCN(CC)CCOC(=O)c1ccc(NC(=O)c2cn(-c3ccccc3)nc2-c2cccs2)cc1 | -8% | 1.6 | -51 | -75 | -14
Nc1cc(=O)[nH]c(SCc2ccccc2)n1 | 0% | -0.5 | 4 | 8 | -1.2
C[C@@H]1CN([C@H](C)CO)C(=O)CCCn2nncc2CO[C@@H]1CN(C)C(=O)Nc1ccc2c(c1)OCO2 | 3% | -4.8&0.1 | 10&2 | 15&5 | 3.9&-4.0
CC(=O)Cn1cnc2c(cnn2-c2ccc(F)cc2)c1=O | 5% | 6.0 | 7 | 21 | 2.3
CCOC(=O)C1(C)C(=O)CC2c3nc4ccccc4cc3CN2C1=O (configuration not stated) | -7% | 1.7 | 0 | 4 | 41
C#CCN(C[C@@H]1[C@@H](OC(=O)NCC2CCCCC2)[C@@H](OC(=O)NCC2CCCCC2)Cn2c(=O)n(CCCCCC)c(=O)n21)S(=O)(=O)c1ccc(C)cc1 | 5% | 0.1 | 3 | -2 | -0.6

A portion of the library, so the mix of outcomes need not match the whole.
